Vaccinia mCherry – qHTS for Stage-Specific Inhibitors of Vaccinia Orthopoxvirus: mCherry Reporter Primary qHTS; Vaccinia virus mCherry reporter infection, fluorescence; about a quarter of the inactives have no number; Potency, µM (highest dose often 36.5 µM), for the others: top-dose activity change, negative = inhibition, hits mostly inhibitors; actives 0.63% (n = 310,000); active = well fitted inhibition curve with a large enough effect; inconclusive = small, poorly fitted or top-dose-only effect; inactive = no such curve, though single readings can be large or run the other way; tested in A549 cells; note: nearly all actives have a fitted effect of over 35% in size; inactives centre near -10
VACV Venus inh – qHTS for Stage-Specific Inhibitors of Vaccinia Orthopoxvirus: Venus Reporter Primary qHTS | Vaccinia virus Venus reporter expression, fluorescence | Potency, µM (doses to about 36.5 µM), for the others: top-dose activity change, negative = inhibition, usual class: inhibitors | actives 0.46% (n = 330,000); active means well fitted inhibition curve with a large enough effect; inconclusive means small, poorly fitted or top-dose-only effect; inactive means no such curve, though single readings can be large or run the other way; tested in A549 cells; note: nearly all actives have a fitted effect of over 30% in size; inactives centre near -10
Starred values were filed as active, the others as inactive; i = inactive; ? = inconclusive; . = no result given; [ ] = dose if it differs, or a comment. % is set by controls: 0 for no effect and ±100 for the full control effect; potency is the fitted concentration of half-maximal effect.

Compound	VACV Venus inh	Vaccinia mCherry
Cc1ccc(NC(=O)c2nc(S(C)(=O)=O)ncc2N(Cc2ccco2)Cc2cccs2)cc1C	-12.4%	-14.8%
O=C(NCC1CCCO1)c1onc(CSc2cccc(Cl)c2)c1C(=O)O (stereo not drawn)	-2.6%	i
C#CCOCCOCCOCCNc1nc(N2CCN(C(=O)CCCCCCCCCCNC(=O)[C@@H](CCSC)n3cc(CCO)nn3)CC2)nc(N2CCN(C(=O)CCCCCCCCCCNC(=O)[C@@H]([C@H](C)O)n3cc(C)nn3)CC2)n1	?	-0.6%
COCCNC(=O)c1cn(C)c2ccccc2c1=O	-11.7%	i
O=C(NCC1CCCN1S(=O)(=O)c1cccs1)c1ccc(F)c(F)c1 (stereo not drawn)	-12.8%	-14.1%
CCCN(C(=O)Nc1cn(CC(C)C)c(=O)c2ccccc12)c1ccc(F)cc1	-4.3%	-1.8%
Cc1ccc(Cl)cc1N(CC(=O)NC(C)c1ccccc1)S(C)(=O)=O (stereo not drawn)	-20.4%	-6.9%
Cc1cccc2sc(N(CCCN(C)C)C(=O)c3cc4ccccc4oc3=O)nc12	-12.5%	-5.6%
O=C(COc1ccc(F)cc1)NCC1(N2CCCCC2)CCCCC1	-10.9%	-8.8%
COc1ccc(/C=C2\CCc3ccccc3C2=O)cc1O	?	11.2µM*
COc1ccccc1NC(=O)C(C)OC(=O)CN1C(=O)C2CC=CCC2C1=O (stereo not drawn)	-7.2%	-4.6%
O=C(OCC(O)C1OC(c2ccccc2)OC(COC(=O)c2ccccc2)C1O)c1ccccc1 (stereo not drawn)	2.4%	9.4%
O=C1C2(c3ccccc3)CN3CN(C2)CC1(c1ccccc1)C3	-2.0%	-14.2%
O=C(/C=C/c1ccccc1)Nc1ccc2c(c1)C(=O)NC2=O	-15.3%	i
O=C(OC(C(=O)NC1CCCC1)c1ccccc1F)c1ccco1 (stereo not drawn)	-19.0%	i
CC(=O)Nc1ccc(S(=O)(=O)NN=CCCc2ccccc2)cc1	0.1%	-25.9%
CN(C)C(N)=NCCC[C@H](N)C(=O)O	-6.5%	-12.8%
CCOc1ccccc1Nc1sc(C(=O)c2ccccc2)c(N)c1C(=O)Nc1ccccc1	-26.7%	?
Cn1cc(S(=O)(=O)c2ccccc2)c(=O)c2cc(F)c(N3CCN(c4ccccc4)CC3)cc21	-18.3%	i
COc1ccc2c(c1OC)C(=O)OC2Nc1ccccn1 (stereo not drawn)	-10.2%	.

Next structures.
Compound	VACV Venus inh	Vaccinia mCherry
Cc1cc(NC(=O)CCCOc2ccc(Cl)cc2Cl)no1	6.7%	-13.6%
O=C1C2CCCN2C(=O)N1CCN1CCN(c2ccccc2)CC1 (stereo not drawn)	-11.5%	-12.8%
Cc1ccc2c(c1)-c1c(cnn1CC(=O)N1CCN(c3cc(Cl)ccc3C)CC1)CO2	-10.6%	-8.2%
CCN(C(=O)Nc1ccccc1)c1ccccc1	-5.6%	-9.0%
CC(C)(C)c1ccc(C(=O)N2CCCN(C(=O)c3ccc(C(C)(C)C)cc3)CC2)cc1	-5.7%	-10.4%
CC1Cc2ccccc2N1C(=O)CCS(=O)(=O)c1ccc2c(c1)NC(=O)CS2 (stereo not drawn)	-0.3%[7.34 µM]	-14.2%[7.34 µM]
O=C(COc1ccc2oc3c(c2c1)CCCC3)Nc1ccc(Cl)cc1	-13.7%	-11.1%
O=C(NC(=S)NCc1ccccc1)c1ccccc1[N+](=O)[O-]	-1.8%	-11.0%
Cc1ccc(S(=O)(=O)N(C)c2ccc(C(=O)NCC(c3ccccc3)N3CCCC3)cc2)cc1 (stereo not drawn)	-22.7%	?
COc1ccc(C(=O)CSc2nnc3n2CCCN3C(=O)Nc2ccccc2)cc1	-0.6%	-11.2%
Cc1c(N(C)C(=O)C23CC4CC(CC(C4)C2)C3)c(=O)n(-c2ccccc2)n1C	2.1%	.
Cc1cccc(C)c1OCC(=O)Nc1nnc(C2CCCO2)s1 (stereo not drawn)	-7.1%	-7.8%
O=C(Nc1ccccn1)c1cccnc1	-1.9%	-18.8%
O=C(Nc1ccc2ccccc2c1)c1cccc([N+](=O)[O-])c1	-19.4%	?
O=C(NCCc1ccccc1)C1Cc2c(-c3ccccc3)ccnc2O1 (stereo not drawn)	-1.6%	-14.5%
Cc1oc(-c2ccccc2)nc1Cn1c(SCc2cccc(C(F)(F)F)c2)nc2cccnc21	?	?
Cc1nc2ccc(NC(=S)NCCCO)cc2nc1C	-12.2%	-11.7%
CCOc1ccccc1NC(=O)c1ccc2c(c1)CCN2S(=O)(=O)c1ccc(C)cc1	-4.7%	-16.6%
COC(=O)c1ccc(C(=O)OC)c(NC(=O)CN2CCN(c3ccccc3)CC2)c1	-1.4%	-9.0%
COc1ccc(C2C(C(C)=O)=C(C)N=c3s/c(=C\c4ccc5c(c4)OCO5)c(=O)n32)c(OC)c1 (stereo not drawn)	-8.3%	i

The list goes on.
Compound	VACV Venus inh	Vaccinia mCherry
COCCCNc1ccn2nc(-c3ccc(OCCN4CCOCC4)cc3)cc2n1	7.1%	-5.7%
O=C(O)/C(=C/c1ccco1)NC(=O)c1ccccc1	-8.3%	-8.2%
O=C(CN(Cc1ccco1)C(=O)c1ccc(Cl)cc1)Nc1ccc(Cl)c(Cl)c1	6.2%	-2.2%
O=C(NCc1cccc(C(F)(F)F)c1)C1CC2Cn3c(nc4ccccc43)C2N1Cc1ccccc1 (stereo not drawn)	-24.4%	i
COc1cc(CNc2ccc3[nH]c(=O)[nH]c3c2)ccc1OCc1ccccc1F	?	?
Cc1ccc(-c2c(CN3CCN(c4cccc(C(F)(F)F)c4)CC3)csc2C)cc1	-14.5%	-5.8%
O=C(Nc1ccccc1Cl)N1CCN(c2ccc3nncn3n2)CC1	-8.7%	-3.3%
O=[N+]([O-])c1c(NCc2ccco2)ccc2nonc12	-9.8%	-4.7%
CC1=NN(c2nc(-c3ccc(Cl)cc3)cs2)C(=O)C1	2.3%	-5.0%
CCN(CC(=O)Nc1c(C(=O)OC)[nH]c2ccc(Cl)cc12)c1ccc2c(c1)OCO2	?	.
CCOc1cc(N2CCOCC2)c(OCC)cc1NC(=O)COC(=O)c1c(C)noc1C	-11.9%	-7.0%
CCOC(=O)c1cc(OCC(=O)NC(C)C(C)C)cc(C(=O)OCC)c1 (stereo not drawn)	-15.7%	.
COC(=O)c1ccccc1NC(=O)NCc1ccccc1	-20.2%	-21.0%
O=C(Cc1c(F)cccc1Cl)Nc1cccc(S(=O)(=O)NC2=NCCCCC2)c1	-6.9%	-17.2%
NC(=O)CSc1nnc(-c2ccc(S(=O)(=O)N3CCCCC3)cc2)n1-c1ccccc1	-11.0%	?
O=C(c1ccc(CS(=O)c2ccccc2Cl)o1)N1CCN(C2CCCCC2)CC1 (stereo not drawn)	-21.2%	-19.2%
CC1CCC(NC(=O)c2ccc(CSc3nc4ccncc4n3Cc3ccc(F)cc3)cc2)CC1 (stereo not drawn)	?	?
CC(C)(C)NC(=O)C(c1ccncc1)N(Cc1ccc(F)cc1)C(=O)c1ccc(-c2ccccc2)[nH]1 (stereo not drawn)	-27.9%	-3.1%
C/C(=N\N(Cc1ccccc1)c1ccccc1)c1ccncc1	-8.0%	-4.6%
CCOc1ccc2[nH]c(=O)c(CN(CCO)C(=O)c3ccc(F)cc3)cc2c1	-21.2%	-1.0%

The listing continues.
Compound	VACV Venus inh	Vaccinia mCherry
COC(=O)C(C)Sc1nnc2n(-c3cccc(C)c3)c(=O)c3c4c(sc3n12)CCCC4 (stereo not drawn)	-9.4%	-6.2%
CCOC(=O)CCCCC(=O)c1[nH]c(=O)[nH]c1CSc1nc(C)cc(=O)[nH]1	-0.3%	-8.3%
COc1ccccc1OCC(=O)Nc1nc(C)c(C)s1	-10.1%	43.6%[activator]
COc1ccc(S(=O)(=O)N(C)CC(=O)N2CCCCCC2)cc1	-13.3%	i
CCOC(=O)CC1(C)NC(C(=O)O)C(C)(C)S1 (stereo not drawn)	-10.2%	i
CSCCC(N=C(NS(=O)(=O)c1ccc(Br)cc1)c1ccccc1)C(=O)O (stereo not drawn)	-9.6%	i
CCNc1nc(NC(C)(C)C)nc(SCC(N)=O)n1	-14.9%	i
COc1ccc(S(=O)(=O)N2CCC(C(=O)NC3CCCCC3)CC2)cc1OC	0.1%	-13.7%
COc1cc(OC)cc(-c2cc3ncccc3cn2)c1	-13.5%	-10.9%
Cn1nnnc1SCC1=C(C(=O)O)N2C(=O)[C@@H](NC(=O)[C@H](O)c3ccccc3)[C@H]2SC1	-7.1%	-10.0%
COc1ccc2nc(N3CCN(C(=O)c4ccc([N+](=O)[O-])o4)CC3)sc2c1	?	?
COc1ccccc1NC(=O)COC(=O)c1ccc(S(=O)(=O)N2CCCCCC2)cc1	-22.0%	-13.8%
CC(C(=O)Nc1sc2c(c1C#N)CCCCC2)N1C(=O)c2ccccc2C1=O (stereo not drawn)	-2.7%	-6.5%
CC(=C/C(=O)O)/C=C/c1cccs1	-22.0%	.
CC(=O)N(Cc1ccco1)c1nc(C(=O)Nc2ccc(Cl)cc2)c(C)s1	-19.3%	-24.2%
O=C(CSc1cn(CC(=O)N2CCCC2)c2ccccc12)Nc1cc(C(F)(F)F)ccc1Cl	-18.8%	-9.4%
N#Cc1ccccc1Sc1ccccc1C(=O)NCC(c1ccco1)N1CCCC1 (stereo not drawn)	-16.4%	i
Cc1ccc(CCNC(=O)c2ccc(NC(=O)N3CCSc4ccccc43)cc2)cc1	-4.1%	-0.1%
CCCCCCCCCCCCCCCC[n+]1ccc(/C=C/c2c[nH]c3ccccc23)cc1	28.9%	?
O=C(NC1(C(F)(F)F)Oc2ccc(Cl)cc2O1)N1CCC2(CC1)OCCO2 (stereo not drawn)	-21.3%	?

A second format for six compounds above:
Second line of a record – VACV Venus inh, Vaccinia mCherry
CSCCC(N=C(NS(=O)(=O)c1ccc(Br)cc1)c1ccccc1)C(=O)O (stereo not drawn)
 : -9.6%, i
CCNc1nc(NC(C)(C)C)nc(SCC(N)=O)n1
 : -14.9%, i
COc1ccc(S(=O)(=O)N2CCC(C(=O)NC3CCCCC3)CC2)cc1OC
 : 0.1%, -13.7%
COc1cc(OC)cc(-c2cc3ncccc3cn2)c1
 : -13.5%, -10.9%
Cn1nnnc1SCC1=C(C(=O)O)N2C(=O)[C@@H](NC(=O)[C@H](O)c3ccccc3)[C@H]2SC1
 : -7.1%, -10.0%
COc1ccc2nc(N3CCN(C(=O)c4ccc([N+](=O)[O-])o4)CC3)sc2c1
 : ?, ?

The list continues:
Compound	VACV Venus inh	Vaccinia mCherry
CC1=CC2=NC(=O)CC(C)(C(=O)N(CC(=O)NC3CCCC3)c3ccccc3C)N2C=C1 (stereo not drawn)	0.6%	-9.5%
Fc1cccc(/C=N/Nc2nc3ccccc3[nH]2)c1	-18.8%	?
CCN(CC)CCCOc1cc2nc(N3CCCN(C)CC3)nc(NC3CCN(C)CC3)c2cc1OC	10µM*	7.08µM*
O=C(NN=Cc1c(O)ccc2ccccc12)c1ccncc1	?	2.51µM*

Single records, from the list above. Screens in order: VACV Venus inh	Vaccinia mCherry
CC1=CC2=NC(=O)CC(C)(C(=O)N(CC(=O)NC3CCCC3)c3ccccc3C)N2C=C1 (stereo not drawn) is listed as 0.6%	-9.5%
CCN(CC)CCCOc1cc2nc(N3CCCN(C)CC3)nc(NC3CCN(C)CC3)c2cc1OC is listed as 10µM*	7.08µM*
O=C(NN=Cc1c(O)ccc2ccccc12)c1ccncc1 is listed as ?	2.51µM*
Fc1cccc(/C=N/Nc2nc3ccccc3[nH]2)c1 is listed as -18.8%	?

From PubChem
